Screening data: PubChem BioAssay, National Center for Advancing Translational Sciences (NCATS)
TRPML1 agonist: qHTS for Agonists of the Human Mucolipin Transient Receptor Potential 1 (TRPML1); Mucolipin-1 (Homo sapiens), Q9GZU1; TRPML1-expressing cells, Ca2+ dye fluorescence, FDSS; host cell line not named in the record; reference of the full effect not given here; activation, % (no concentration beside the values); hit rate 0.12% among 410,000; AID 624414, 2012; in the data active = activation above about 50%; inconclusive = about 30% to 50%; inactive = below about 30%; note: 0% is about no effect; the text of the record puts the active cut at 80%
Target sequence (Q9GZU1 whole entry, looked up): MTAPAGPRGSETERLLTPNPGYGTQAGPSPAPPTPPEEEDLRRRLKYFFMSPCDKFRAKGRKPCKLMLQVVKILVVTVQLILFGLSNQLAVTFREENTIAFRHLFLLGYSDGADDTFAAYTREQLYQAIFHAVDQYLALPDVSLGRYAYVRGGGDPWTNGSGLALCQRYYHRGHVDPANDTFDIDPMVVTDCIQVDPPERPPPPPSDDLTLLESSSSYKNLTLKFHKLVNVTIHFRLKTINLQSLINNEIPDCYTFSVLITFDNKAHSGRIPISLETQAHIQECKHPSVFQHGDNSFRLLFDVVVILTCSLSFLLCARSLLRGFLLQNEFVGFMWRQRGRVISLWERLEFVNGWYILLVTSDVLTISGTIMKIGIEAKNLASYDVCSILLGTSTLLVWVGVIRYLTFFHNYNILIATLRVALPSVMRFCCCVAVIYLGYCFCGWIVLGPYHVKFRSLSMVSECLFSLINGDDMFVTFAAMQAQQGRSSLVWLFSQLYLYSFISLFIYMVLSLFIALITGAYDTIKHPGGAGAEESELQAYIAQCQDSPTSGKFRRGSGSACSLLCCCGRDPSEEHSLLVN
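In this qHTS format, compounds were pin-transferred onto Ca8-dye-loaded TRPML1-DL cells induced with Tet overnight, and intracellular Ca2+ fluorescence was recorded kinetically for 110 s after a 10 s baseline. A subsequent 4uM final 54-4 (EC80) addition followed by a second 110 s read served as the antagonist phase.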
TRPML1 inh: qHTS for Inhibitors of the Human Mucolipin Transient Receptor Potential 1 (TRPML1) | AID 624415, 2012 | TRPML1-inducible cells, Ca2+ dye fluorescence, FDSS; stronger effect = lower value; inhibition of EC80 agonist-evoked calcium signal | hit rate 0.02% among 390,000 | Mucolipin-1 (Homo sapiens), Q9GZU1 | activity change, negative = inhibition, % (test concentration not listed); in the data active means activity change below about -50%; inconclusive means about -30% to -50%; inactive means above about -30%;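 note: stimulus is agonist 54-4 at its EC80 concentration; % is set by controls: 0 for no effect and ±100 for the full control effect; compound concentration not given in the record; the text of the record puts the active cut at -80%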
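TRPML1-DL cells, Tet-induced overnight (~16 h, 37 °C) at 1,500 cells/well, were loaded with Ca8 no-wash dye plus quencher for 45-90 min at room temperature. Compounds were pinned during FDSS kinetic reading; agonist 54-4 at EC80 (4 uM final) then added.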
Six1-Eya2 inh: qHTS Assay for Inhibitors of the Six1/Eya2 Interaction; Homeobox protein SIX1 (Homo sapiens) + Protein phosphatase EYA2 (Homo sapiens), …; AlphaScreen GST-Six1/His-Eya2 binding, biochemical; stronger effect = lower value; control for the full effect not named in the record; activity change, % (test concentration not listed); hit rate 0.56% among 360,000; AID 651725, 2012; in the data active = activity change below about -65%; inconclusive = about -30% to -65%; inactive = above about -30%; note: % is set by controls: 0 for no effect and ±100 for the full control effect; compound concentration not given in the record
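Compounds are tested against tagged Six1 and Eya2 proteins bridged by glutathione donor and nickel acceptor beads; after a one-hour incubation at 37 °C without light, AlphaScreen emission is recorded.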
CtBP-E1A inh: qHTS Assay for Inhibitors of the CtBP/E1A Interaction | CtBP / adenovirus E1A interaction (AlphaScreen) | AlphaScreen GST-E1A/His-CtBP binding, 1536-well; stronger effect = lower value; control for the full effect not named in the record | activity change, % (test concentration not listed) | hit rate 0.49% among 340,000 | AID 651724, 2012; in the data active means activity change below about -65%; inconclusive means about -30% to -65%; inactive means above about -30%; note: % is set by controls: 0 for no effect and ±100 for the full control effect; compound concentration not given in the record
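Homogeneous bead-based format: GST-tagged E1A captured on glutathione donor beads, His-tagged CtBP on nickel acceptor beads; compounds precede bead addition by 2 h at 37 °C.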
TRPV1 potentiator: HTS Assay for Compounds that Act as Potentiators of the Vanilloid Receptor 1. Transient receptor potential cation channel subfamily V member 1 (Homo sapiens), Q8NER1. TRPV1-expressing cells, Fluo-8 calcium influx, capsaicin EC20 potentiation; host cell line not named in the record; control for the full effect not named in the record. potentiation, % at 8.33 µM. hit rate 0.02% among 320,000. AID 540277, 2011; active means potentiation above 80%; inconclusive means 30% to 80%; inactive means below 30%; note: 0% is about no effect
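TRPV1-expressing cells were cultured overnight at 35.5C and loaded with Fluo-8 calcium dye for 40 to 90 min at room temperature. After a 10 s baseline, compound was added and calcium influx was read kinetically for 3 min (ex 480/em 520 nm).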
D2 PAM: Beta-Arrestin HTS for Positive Allosteric Modulators of the Human D2 Dopamine Receptor: Potentiators | D(2) dopamine receptor (Homo sapiens), P14416 | DiscoveRx D2 beta-arrestin cells, luminescence, 90 min; 100% = 57 uM dopamine signal | potentiation, % (concentration not given with the values) | hit rate 0.23% among 360,000 | AID 624464, 2012; active = potentiation of 50% or more; inconclusive = 30% to 50%; inactive = 30% or less;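 note: compound concentration not given in the record; tested on top of an EC20 dose of dopamine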
Target sequence (P14416 whole entry, looked up): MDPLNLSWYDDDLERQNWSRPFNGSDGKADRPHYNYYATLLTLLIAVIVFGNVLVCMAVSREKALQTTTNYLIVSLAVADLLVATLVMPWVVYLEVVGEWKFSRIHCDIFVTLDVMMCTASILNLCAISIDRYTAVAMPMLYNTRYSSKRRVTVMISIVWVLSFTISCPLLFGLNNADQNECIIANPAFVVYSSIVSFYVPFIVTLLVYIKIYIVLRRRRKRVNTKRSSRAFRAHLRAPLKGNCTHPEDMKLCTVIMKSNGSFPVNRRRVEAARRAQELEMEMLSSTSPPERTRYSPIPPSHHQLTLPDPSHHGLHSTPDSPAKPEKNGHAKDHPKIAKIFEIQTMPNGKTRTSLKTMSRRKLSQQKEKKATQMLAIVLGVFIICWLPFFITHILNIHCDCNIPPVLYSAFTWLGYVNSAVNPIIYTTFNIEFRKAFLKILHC
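D2 cells co-treated with compound plus 50 nM dopamine (EC20) for 90 min at 37 deg C to detect potentiation. Beta-arrestin recruitment was read as enzyme-fragment luminescence after 1 h at ambient temperature. Full response was set by 57 uM dopamine.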
* = called active by the depositor; ? = inconclusive; . = no result given; & = joins results of further samples; ! = repeats disagree.

SMILES	TRPML1 agonist	TRPML1 inh	Six1-Eya2 inh	CtBP-E1A inh	TRPV1 potentiator	D2 PAM
CC(Oc1cc2oc(=O)c3c(c2cc1Cl)CCC3)C(=O)NCCN1CCOCC1 (stereo not drawn)	-0.2	-7	-7	0	0	-45
N#CCC(=O)Nc1ccc(C(=O)OCC(=O)N(Cc2ccccc2)C2CCS(=O)(=O)C2)cc1 (stereo not drawn)	0.2	-4	0	1	5	-1
COc1ccc(NS(=O)(=O)c2ccc(N3CCCCC3)c(NC(=O)C(C)NC(N)=O)c2)cc1 (stereo not drawn)	-0.6	-2	0	-2	.	10
COc1ccccc1CCNC(=O)Cc1cccs1	1.1	3	7	4	-13	-3
Cc1ccc(C)c(N2N=C(C(=O)O)CCC2=O)c1	0.0	4	9	1	5	-2
COC(=O)c1ccc(NC(=O)CSc2nnc(C)n2-c2ccccc2)cc1	2.2	-14	1	-5	15	-4
CCCCOc1cccc(C2(C(=O)O)CCCC2)c1	0.2	-1	14	6	-3	-13
CCN(CC)CCn1c(C)nc2c(sc3nc4c(cc32)COC(C)(C)C4)c1=O	0.4	9	-3	4	-16	-5
N#CCCn1cc(C(=O)Nc2ccccc2Br)c(-c2cc3ccccc3o2)n1	3.1	40	0	1	-6	-13
CC(=O)Oc1ccc(OC(C)=O)c(SCCCCCN2CCOCC2)c1	0.0	9	-2	7	-2	-4
CCc1nc2c(OCc3ccc(OC)cc3)cccn2c1N(C)C(=O)c1ccncc1	-0.6	.	3	4	.	2
O=C(CSc1ccccc1)N1CCN(S(=O)(=O)c2ccccc2)CC1	-0.7	-11	-15	5	-14	-8
CC(=O)Nc1cccc(C(=O)OC(C(=O)c2ccc(C)c(C)c2)c2ccccc2)c1 (stereo not drawn)	0.5	17	-7	-1	-3	-9
COc1ccc(S(=O)(=O)Cc2ccc(C(=O)NCC(OC)OC)o2)cc1	0.3	-21	3	8	1	-7
CC1=C(C(=O)OCC2CCCO2)C(c2ccc(Cl)cc2)NC(=O)N1 (stereo not drawn)	-0.2	-7	-23	1	5	1
Cn1c(=O)c2[nH]c(SCCN3CCCCC3)nc2n(C)c1=S	0.4	-13	4	-5	.	-6
Cc1cccc(OCc2nnc(SCCC(=O)O)n2-c2ccccc2)c1	0.1	0	5	-2	19	-5
COc1ccc(NC(=O)CN(C)S(=O)(=O)c2ccc3c(c2)c(=O)n(C)c(=O)n3C)cc1	0.2&-0.3	-87*!	-6	-22	13	-6
CCOC(=O)c1c[nH]c2nc(C)ccc2c1=O	2.7&0.1	16	-13	-12	-2	4
CCOC(=O)CSc1nn(-c2ccccc2)c(=S)s1	2.1	8	10	10	11	-3
Cn1c(SCc2cccnc2)nc2c(c1=O)SCC2	0.5	-9	-12	-9	11	2
O=C(NCC(c1ccco1)N1CCN(c2ccccc2)CC1)C(=O)NC1CCCC1 (stereo not drawn)	0.3	1	-1	-2	-4	-3
Cc1ccc(OCC(=O)Nc2ccc(S(=O)(=O)NC3=NCCCCC3)cc2)cc1	-0.3	-5	-1	-1	.	0
CCOC(=O)c1cccc(-c2c(-c3ccccc3)ncc3cc(OC)c(OC)cc23)c1	2.6	14	-5	.	-8	20
O=C(c1ccc(Cl)cc1)C1CCN(C(=O)c2ccccc2)CC1	-0.1	14	-9	6	-1	-8
COc1cc(/C=C2\COC/C(=C\c3cc(OC)c(OC)c(OC)c3)C2=O)cc(OC)c1OC	1.8	-2	0	-12	13	1
O=C(Nc1cc(Cl)ccc1O)c1cc(-c2ccco2)on1	1.3	8	-3	2	8	23
C[C@@H]1CN([C@@H](C)CO)C(=O)CCCn2nncc2CO[C@@H]1CN(C)S(=O)(=O)c1ccc(C#N)cc1	-0.2	-11	3	6	.	1
O=C(Nc1ccc2nsnc2c1)c1ccc2c(c1)OCO2	-0.7	10	-1	-2	-4	-11
O=c1c2ccccc2ncn1Cc1ccc(Cl)c(Cl)c1	1.1	13	8	4	11	3
CCn1cc(Br)c(C(=O)NC(C)c2ccccc2)n1 (stereo not drawn)	2.3	-13	2	3	-2	6
Cc1ccc(NC(=O)CCNC(=O)c2ccco2)cc1	1.1	13	3	6	1	-6
Cc1cc(C(=O)N/N=C/c2cc(Br)cc(Br)c2OC(=O)c2cccc(F)c2)n[nH]1	1.8	11	-24	-28	-7	-5
O=C(O)CCC(=O)Nc1ccc(C(=O)OCC(=O)c2ccc(Cl)cc2Cl)cc1	0.6	10	1	0	-10	-7
CCN1/C(=C/c2ccc3cc(C)ccc3[n+]2CC)Sc2cc(C)c(C)cc21	16	2	-12	-20	14	-55
O=C(C1CC(c2ccc(F)cc2)=NO1)N1CCN(c2ccccc2)CC1 (stereo not drawn)	-0.2	-12	5	11	-24	-4
Cc1ccc(N2C(=O)CC(Cc3ccc(Cl)cc3)C2=O)cc1 (stereo not drawn)	0.9	29	24	-7	-29	-2
O=C(c1cccc(Cl)c1)N1CCN(C2CCCCCC2)CC1	1.7	-1	-2	-3	-14	-16
COc1ccccc1N1CN(CCc2ccccc2)CNC1=S	0.2	-2	-1	4	-10	0
O=C(Nc1ccccc1Cl)NC1(C(=O)N2CCCCC2)CCCCC1	1.6	4	-3	2	4	4
Cc1cc(C)c(OCC(=O)N(Cc2ccccc2)C2CCS(=O)(=O)C2)c(C)c1 (stereo not drawn)	0.2	11	-3	15	16	-5
O=C1CCC(C(=O)Nc2ccc([N+](=O)[O-])cc2)N1 (stereo not drawn)	-0.3	-18	-5	-3	5	5
CCN1C2=C(C(=O)CCC2)C(c2ccc(O)cc2)C2=C1CCCC2=O	-0.3	-6	2	2	9	10
COc1ccccc1OCC(O)Cn1c(=N)n(CCN2CCCCC2)c2ccccc21 (stereo not drawn)	-0.2	34	4	-5	?	-16
Cc1cc(N2CCN(C(=O)c3ccoc3)CC2)n2nc(-c3ccccc3)cc2n1	-0.2	0	-26	-23	.	-2

Rewritten with values under each structure: entries from further up.
Below each compound: TRPML1 agonist | TRPML1 inh | Six1-Eya2 inh | CtBP-E1A inh | TRPV1 potentiator | D2 PAM
> Cc1ccc(OCC(=O)Nc2ccc(S(=O)(=O)NC3=NCCCCC3)cc2)cc1
  -0.3 | -5 | -1 | -1 | . | 0
> CCOC(=O)c1cccc(-c2c(-c3ccccc3)ncc3cc(OC)c(OC)cc23)c1
  2.6 | 14 | -5 | . | -8 | 20
> O=C(c1ccc(Cl)cc1)C1CCN(C(=O)c2ccccc2)CC1
  -0.1 | 14 | -9 | 6 | -1 | -8
> COc1cc(/C=C2\COC/C(=C\c3cc(OC)c(OC)c(OC)c3)C2=O)cc(OC)c1OC
  1.8 | -2 | 0 | -12 | 13 | 1
> O=C(Nc1cc(Cl)ccc1O)c1cc(-c2ccco2)on1
  1.3 | 8 | -3 | 2 | 8 | 23
> C[C@@H]1CN([C@@H](C)CO)C(=O)CCCn2nncc2CO[C@@H]1CN(C)S(=O)(=O)c1ccc(C#N)cc1
  -0.2 | -11 | 3 | 6 | . | 1
> O=C(Nc1ccc2nsnc2c1)c1ccc2c(c1)OCO2
  -0.7 | 10 | -1 | -2 | -4 | -11
> O=c1c2ccccc2ncn1Cc1ccc(Cl)c(Cl)c1
  1.1 | 13 | 8 | 4 | 11 | 3
> CCn1cc(Br)c(C(=O)NC(C)c2ccccc2)n1 (stereo not drawn)
  2.3 | -13 | 2 | 3 | -2 | 6
> Cc1ccc(NC(=O)CCNC(=O)c2ccco2)cc1
  1.1 | 13 | 3 | 6 | 1 | -6
> Cc1cc(C(=O)N/N=C/c2cc(Br)cc(Br)c2OC(=O)c2cccc(F)c2)n[nH]1
  1.8 | 11 | -24 | -28 | -7 | -5

Next part.
SMILES	TRPML1 agonist	TRPML1 inh	Six1-Eya2 inh	CtBP-E1A inh	TRPV1 potentiator	D2 PAM
CN(C)S(=O)(=O)N1CCN(C(=O)N2CCCCC2)CC1	0.4	13	3	-2	14	-2
Cc1nc([N+](=O)[O-])cn1CC(=O)Nc1ccc2c(c1)OCO2	0.1	-18	2	.	3	-8
O=C(O)CCCC(=O)Nc1ccc2c(c1)oc1ccccc12	0.4	-6	-17	1	6	0
Cc1cc(N)n2nc(C(F)(F)F)nc2n1	0.6	-4	-1	0	-10	3
CCC(Sc1nc2c(cnn2-c2ccc(Cl)cc2)c(=O)[nH]1)C(=O)OC (stereo not drawn)	-0.8	9	5	3	-2	-3
COc1ccc(N/C(N)=N/c2nc(C)cc(C)n2)cc1	?	-3	0	4	.	-5
Cc1nn(C)c(N)c1-c1ccccc1	-0.3	-15	-5	6	3	-6
COc1ccc(S(=O)(=O)N2CCCCCC2)cc1C(=O)OCC(=O)NCC(C)C	-1.1	2	-3	-3	-9	-12
O=S(=O)(c1ccc(Cl)c(C(F)(F)F)c1)N1CCN(c2ccccn2)CC1	6.7	7	-7	.	-9	0
COc1ccc(-c2coc3cc(O)ccc3c2=O)cc1	1.0	31	0	7	.	7
COc1ccc(-c2nc(C#N)c(NCc3ccc(C)cc3)o2)cc1OC	2.1	11	-18	-5	-9	-3
Cc1cc(C)cc(NC(=O)CCn2c(=S)[nH]c3ccccc3c2=O)c1	-0.5	19	0	-4	1	-8
COc1cc(/C=C(\C#N)C(=O)c2c(C)[nH]c3ccccc23)cc(OC)c1OC	1.0	44	-3	10	3	14
C=CCc1cccc2cc(C(=O)N3CCN(c4ccccn4)CC3)c(=O)oc12	1.9	-11	-11	-9	0	-13
Cc1nc2ccccc2cc1C(=O)N(C)Cc1ccccc1	-0.4	4	-5	-1	-2	-4
c1cnc(NC2CCCCCC2)nc1	-0.1	9	3	5	13	-8
COC(=O)c1cc2nc(-c3ccccc3)cc(C(F)(F)F)n2n1	-0.6	-10	-2	7	-7	0
O=C(Nc1cc(Cl)cc(Cl)c1)C1CCCC1	-0.1	-15	19	22	3	-8
O=C(COC(=O)CCCN1C(=O)c2cccc3cccc(c23)C1=O)Nc1cccc(Br)c1	0.0	1	-6	13	4	-15
O=C(CS(=O)(=O)c1ccc(Cl)cc1)NCCS(=O)(=O)c1ccc(Cl)cc1	-0.2	-8	4	9	6	-7
CCS(=O)(=O)Nc1ccc(C2=NN(S(=O)(=O)c3ccc(F)cc3)C(c3ccco3)C2)cc1 (stereo not drawn)	1.9	50	-6	6	16	-2
